High-throughput results: PubChem BioAssay, ICCB-Longwood Screening Facility, Harvard Medical School
BasE inh: blocks the Acinetobacter baumannii siderophore enzyme BasE | purified BasE, fluorescence polarization binding displacement | inhibition, % (concentration not given with the values) | 0.1% of 84,000 active;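 active = both replicates above 25% with normal brightness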;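 note: 0% = negative plate control signal and 100% = positive plate control signal; stock transfer was 100 nL into about 30 µL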
LANA-nucl inh: LANA-nucleosome interaction inhibition; FITC-LANA1-23 / chicken nucleosome fluorescence polarization; hits give low values; z-score (concentration not given with the values); 0.3% of 51,000 active; AID 720717;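 active = both repeat wells score below -2 in polarization z-score versus plate sample wells, excluding overly bright wells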;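 note: 100 nL library stock added to about 30 µL; numbers are from one replicate; some results filed as inactive read as strong as hits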
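Assay system: FITC-LANA peptide and chicken nucleosomes; input: 240 nM purified chicken nucleosomes (480 nM peptide binding sites), final; also added: 50 nM FITC-LANA1-23 probe; medium: TEN-BT buffer, pH 7.5; doses: pin-transferred compound, 100 nL; times: 10–45 min, room temperature; technique: fluorescence polarization; replication: duplicates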
* hit, by the source's call; & = joins results of further samples. Not all compounds are listed; count on the stated rates, not on these rows.

How did O=C(c1ccco1)N1CCN(Cc2cccc(C(F)(F)F)c2)CC1 do in these assays?
BasE inh: -0.2; LANA-nucl inh: -0.791

How did CNC(=O)NC(=O)CSc1nnc(Cc2ccccc2)n1-c1ccc(Cl)cc1 do in these assays?
BasE inh: 3.3

What do the screens show for `CC1CC(C)CN(C(=O)COC(=O)c2cccnc2Nc2ccccc2F)C1` (stereo not given)?
BasE inh: -5.3

How did CC(C)CC(=O)Nc1nc2ccc(S(C)(=O)=O)cc2s1 do in these assays?
BasE inh: 1.6; LANA-nucl inh: 0.466

Results for O=c1[nH]c(CSc2ncc(-c3ccc(F)cc3)n2Cc2ccco2)nc2ccccc12 ?
BasE inh: -1.7; LANA-nucl inh: -0.394

What do the screens show for `COc1cc2c(cc1OC)C(=O)N(Cc1cccc(Cl)c1)CC2`?
LANA-nucl inh: 0.539

Results for CCOc1ccc(S(=O)(=O)Nc2ncccc2C)cc1 ?
BasE inh: 1.8; LANA-nucl inh: -0.599

What do the screens show for `Cc1ccc(NC(=O)c2cccc(N(C)C)c2)cc1NC(=O)c1ccc(O)cc1`?
BasE inh: 5.0; LANA-nucl inh: -0.136

What do the screens show for `CCc1ccc(/C=C2/C(=O)N(C)C(=S)N2C)cc1`?
BasE inh: 0.0; LANA-nucl inh: -0.56

How did C#CCN1C(=O)S/C(=C/c2cc(C)n(CC)c2C)C1=O do in these assays?
BasE inh: 5.2; LANA-nucl inh: 0.213

Results for O=C(Cc1c(F)cccc1Cl)NC(=O)NCCc1c(F)cccc1Cl ?
BasE inh: -0.5

What do the screens show for `CCCCCCCc1c(C#N)c(N)[nH]c(=S)c1C#N`?
BasE inh: 1.6

What do the screens show for `CC1=C(C(=O)OCc2ccccc2)C(c2ccccc2)N(C)C(=O)N1C` (stereo not given)?
BasE inh: 2.3; LANA-nucl inh: -0.276

Results for O=C(OCc1nnc(-c2ccccc2)o1)c1ccc2c(=O)n3c(nc2c1)CCCCC3 ?
BasE inh: 1.5

How did NC(N)=NCCNS(=O)(=O)c1cccc2cnccc12 do in these assays?
BasE inh: -1.5; LANA-nucl inh: 0.0155

An excerpt from above in order of length of the SMILES, smallest number first:
Results for CCOc1ccc(S(=O)(=O)Nc2ncccc2C)cc1 ?
BasE inh: 1.8; LANA-nucl inh: -0.599

How did NC(N)=NCCNS(=O)(=O)c1cccc2cnccc12 do in these assays?
BasE inh: -1.5; LANA-nucl inh: 0.0155

What do the screens show for `CCc1ccc(/C=C2/C(=O)N(C)C(=S)N2C)cc1`?
BasE inh: 0.0; LANA-nucl inh: -0.56

How did CC(C)CC(=O)Nc1nc2ccc(S(C)(=O)=O)cc2s1 do in these assays?
BasE inh: 1.6; LANA-nucl inh: 0.466

How did C#CCN1C(=O)S/C(=C/c2cc(C)n(CC)c2C)C1=O do in these assays?
BasE inh: 5.2; LANA-nucl inh: 0.213

What do the screens show for `COc1cc2c(cc1OC)C(=O)N(Cc1cccc(Cl)c1)CC2`?
LANA-nucl inh: 0.539

Results for O=C(Cc1c(F)cccc1Cl)NC(=O)NCCc1c(F)cccc1Cl ?
BasE inh: -0.5

What do the screens show for `CC1CC(C)CN(C(=O)COC(=O)c2cccnc2Nc2ccccc2F)C1` (stereo not given)?
BasE inh: -5.3

What do the screens show for `CC1=C(C(=O)OCc2ccccc2)C(c2ccccc2)N(C)C(=O)N1C` (stereo not given)?
BasE inh: 2.3; LANA-nucl inh: -0.276

How did CNC(=O)NC(=O)CSc1nnc(Cc2ccccc2)n1-c1ccc(Cl)cc1 do in these assays?
BasE inh: 3.3

What do the screens show for `Cc1ccc(NC(=O)c2cccc(N(C)C)c2)cc1NC(=O)c1ccc(O)cc1`?
BasE inh: 5.0; LANA-nucl inh: -0.136

Results for O=c1[nH]c(CSc2ncc(-c3ccc(F)cc3)n2Cc2ccco2)nc2ccccc12 ?
BasE inh: -1.7; LANA-nucl inh: -0.394

Additional results follow:
What do the screens show for `CCN(CC(=O)Nc1ccc2c(c1)OCCO2)c1nnnn1-c1ccccc1`?
BasE inh: -5.3

Results for COc1ccc(-c2nnc(SCc3nnc(-c4ccccc4)o3)o2)cc1OC ?
BasE inh: -0.8; LANA-nucl inh: 0.893

How did Cc1[nH]c2ccccc2c1-c1ccc(Cl)nn1 do in these assays?
LANA-nucl inh: -0.909

How did CC(C)c1cc(=O)[nH]c(SCc2nc(-c3ccccc3)no2)n1 do in these assays?
BasE inh: 1.8; LANA-nucl inh: -0.734

How did Cc1cc(C#N)c2c(c1)-c1ccccc1CC2 do in these assays?
BasE inh: 2.8; LANA-nucl inh: -0.556

What do the screens show for `Cc1ccc2nc3c(c(C(=O)OC4CCOC4=O)c2c1)CCCC3` (stereo not given)?
BasE inh: 0.7

How did CC1CCC(N(C)Cc2nc3ccc(Cl)cc3n2CCO)CC1 (stereo not given) do in these assays?
BasE inh: -1.3

What do the screens show for `CCSc1nc(SCC)c2c3c([nH]c2n1)CCCC3`?
BasE inh: -0.5

What do the screens show for `CC1=NN(c2ccc(C)cc2)C(=O)C1`?
BasE inh: 0.2; LANA-nucl inh: 0.844

How did Cc1ccc(-c2csc(NC(=O)C3(c4ccccc4)CC3)n2)s1 do in these assays?
BasE inh: 1.6

What do the screens show for `O=C(CC(NCc1ccccc1)C(=O)O)NC1CCCCC1` (stereo not given)?
BasE inh: -2.0; LANA-nucl inh: 1.56

How did NC(=O)C1CCN(C(=O)/C=C/c2cccc(Cl)c2)CC1 do in these assays?
BasE inh: -0.3

What do the screens show for `CC1(N2CCOCC2)CC2(O)C(=[N+]1[O-])CCC/C2=N\O` (stereo not given)?
BasE inh: -0.4; LANA-nucl inh: 0.034

Results for CCOC(=O)CSc1nc2ccccc2o1 ?
BasE inh: 1.8

What do the screens show for `N#Cc1ccc(OCC(=O)N2CCCCC2)cc1`?
BasE inh: -0.3; LANA-nucl inh: -0.487

What do the screens show for `O=C(OCc1ccccc1)c1cnc(Sc2ccc(Cl)cc2)nc1C(F)(F)F`?
BasE inh: 1.1

How did COc1ccc(N(C)C(=O)c2noc3c2COc2ccccc2-3)c(OC)c1 do in these assays?
BasE inh: 0.0; LANA-nucl inh: -1.52

Results for O=c1ccc(-c2cccs2)nn1Cc1ccccc1 ?
BasE inh: -2.5; LANA-nucl inh: -1.18

What do the screens show for `Cc1n[nH]c(C)c1CC(=O)O`?
BasE inh: -0.2; LANA-nucl inh: 0.314

How did COCCn1c(C)cc(C=C2C(=O)NC(=O)NC2=O)c1C do in these assays?
BasE inh: -3.1; LANA-nucl inh: -0.103

Results for O=C(CSc1nnc(-c2ccc3c(=O)n4c(nc3c2)CCCCC4)o1)c1c[nH]c2ccccc12 ?
BasE inh: -0.1

How did CC(C)CC1CCCCC1OC(=O)C[N+]1(C)CCCCC1 (stereo not given) do in these assays?
BasE inh: 0.3

What do the screens show for `Cc1nc2cc(-c3ccccc3)nn2c(C)c1CCC(=O)N1CCN(c2ccccn2)CC1`?
BasE inh: 0.8; LANA-nucl inh: -0.484

How did N#Cc1ccc(Oc2ccc(C#N)cc2)cc1 do in these assays?
BasE inh: 2.2

Results for CCC(=O)NC(O)C(=O)c1ccc(C)cc1 (stereo not given) ?
BasE inh: 1.6

How did O=C1CC(c2ccccc2)CC(O)=C1C=NCC1CCCO1 (stereo not given) do in these assays?
BasE inh: 0.5; LANA-nucl inh: 0.944

How did Cc1ccc(C)c(N2CCN(c3cnn(-c4nc5ccccc5o4)c(=O)c3Cl)CC2)c1 do in these assays?
BasE inh: 3.4; LANA-nucl inh: -0.594

What do the screens show for `O=C(O)c1cccc(S(=O)(=O)NCC2CCCO2)c1` (stereo not given)?
BasE inh: 0.9; LANA-nucl inh: 1.21

What do the screens show for `O=C(NCc1ccccc1)c1ccc2noc(-c3ccccc3)c2c1`?
BasE inh: -5.4

What do the screens show for `CCNC(=O)c1cnc(N2CCCC2)nc1`?
BasE inh: -1.1; LANA-nucl inh: 3.04

How did O=C(NC(=O)c1cnccc1C(F)(F)F)Nc1ccc(Cl)cc1Cl do in these assays?
BasE inh: 0.6

How did Cc1c(CCC#N)c(Cl)n2c(nc3ccccc32)c1C#N do in these assays?
BasE inh: -0.1; LANA-nucl inh: -0.397

What do the screens show for `CC1CCCCC1NC(=O)COC(=O)c1cc(-c2ccco2)nc2ccccc12` (stereo not given)?
BasE inh: 3.3

What do the screens show for `c1ccc(CN=C2SC(=Nc3ccccc3)C3=C2CCCC3)cc1`?
BasE inh: 2.5

What do the screens show for `O=C(OCC(=O)c1ccccc1Cl)c1cnccn1`?
BasE inh: -2.4; LANA-nucl inh: -0.512

What do the screens show for `COC(=O)c1c(C(=O)OC)c(-c2ccccc2)n2c1CCC2`?
LANA-nucl inh: 0.262

Results for CCCCC(C(=O)O)N1C(=O)/C(=C/c2cccnc2)SC1=S (stereo not given) ?
BasE inh: 3.1; LANA-nucl inh: -0.234

Results for O=C(NC1CCCc2ccccc21)c1cc(S(=O)(=O)N2CCCCC2)c[nH]1 (stereo not given) ?
BasE inh: -1.1; LANA-nucl inh: -0.643

How did COc1cccc(C(=O)Nc2c(C(=O)Nc3ccccc3F)oc3ccccc23)c1OC do in these assays?
BasE inh: 0.0; LANA-nucl inh: 1.5

What do the screens show for `CCOP(=O)(c1ccccc1)C(O)c1ccc(Br)cc1` (stereo not given)?
BasE inh: 1.0; LANA-nucl inh: 0.259

What do the screens show for `CCOc1ccc2[nH]c(=O)c(CN(C(=O)Nc3ccccc3)C3CC3)cc2c1`?
BasE inh: 0.9; LANA-nucl inh: 0.109

What do the screens show for `COCCOC(=O)c1ccc2nc(N)sc2c1`?
BasE inh: 0.7; LANA-nucl inh: -0.315

What do the screens show for `CNC(=O)CSc1nnc(-c2ccccc2OC)n1CCc1ccccc1`?
BasE inh: 1.6

Results for CC(C)(C)NC(=O)[C@@H]1C[C@@H]2CCCC[C@@H]2CN1C[C@@H](O)[C@H](Cc1ccccc1)NC(=O)[C@H](CC(N)=O)NC(=O)c1ccc2ccccc2n1 ?
BasE inh: -1.3; LANA-nucl inh: -0.027&0.269

Results for CCOC(=O)N1CCN(c2nc(-c3ccccc3)cc(C(F)(F)F)n2)CC1 ?
BasE inh: -0.1; LANA-nucl inh: -0.444

How did S=c1[nH]c2ccccc2n1C1CCCCC1 do in these assays?
BasE inh: -1.0; LANA-nucl inh: 1.07

What do the screens show for `Cc1c2n(c3ccccc13)CC/C2=N\O`?
BasE inh: 2.0; LANA-nucl inh: -0.18

Results for CCCC(=O)c1c(NC(C)C)cc(C)oc1=O ?
BasE inh: 5.2; LANA-nucl inh: -0.224

Results for O=C(CNc1ccc2ccccc2c1)N1CCN(c2ccccc2)CC1 ?
BasE inh: 3.9

Results for O=C(CSC(=O)c1ccco1)Nc1cc(C(F)(F)F)cc(C(F)(F)F)c1 ?
BasE inh: -0.2

How did CC(=O)NC1C(OCc2ccccc2)OC(CO)C(O)C1OCc1ccccc1 (stereo not given) do in these assays?
BasE inh: 0.8; LANA-nucl inh: -0.337

How did Cc1csc2nc(CSc3nnc(-c4cc5c(s4)CCC(C)C5)o3)cc(=O)n12 (stereo not given) do in these assays?
BasE inh: 2.4

Results for CCC(=O)N1c2ccccc2-c2nnc(SC)nc2OC1c1ccccc1F (stereo not given) ?
BasE inh: 1.2; LANA-nucl inh: -0.326

How did COC(=O)c1ccccc1NC(=O)c1ccoc1C do in these assays?
BasE inh: -1.2; LANA-nucl inh: -0.289

How did CN(C)C(CNC(=O)c1ccccc1C(F)(F)F)c1ccco1 (stereo not given) do in these assays?
BasE inh: 1.0

What do the screens show for `O=C1/C(=C/C2CCCCC2)CCCc2ccccc21`?
BasE inh: 1.9

Results for CC(Sc1nc(-c2ccccc2)c(C#N)c(=O)[nH]1)C(=O)Nc1ccccc1 (stereo not given) ?
BasE inh: 3.2; LANA-nucl inh: -0.881

Results for COc1ccc(C2=NOC(C(=O)N3CCN(C)CC3)C2)cc1 (stereo not given) ?
BasE inh: -1.1; LANA-nucl inh: -0.919

How did CCn1nccc1C(=O)Nc1ccc(Cl)cc1Cl do in these assays?
BasE inh: 3.2; LANA-nucl inh: 0.261

How did O=C(Oc1ccc(-c2ccccc2)c(F)c1)c1ccco1 do in these assays?
LANA-nucl inh: -1.04

Pulled one by one from the list above (2):
How did Cc1csc2nc(CSc3nnc(-c4cc5c(s4)CCC(C)C5)o3)cc(=O)n12 (stereo not given) do in these assays?
BasE inh: 2.4

How did CC(=O)NC1C(OCc2ccccc2)OC(CO)C(O)C1OCc1ccccc1 (stereo not given) do in these assays?
BasE inh: 0.8; LANA-nucl inh: -0.337

Following part:
How did Cc1cnc(SCc2cnc(C)nc2N)nc1 do in these assays?
BasE inh: 1.8; LANA-nucl inh: -0.083

Results for COc1ccc2nc(N3CCCCC3)c(/C=C3\SC(=S)NC3=O)cc2c1 ?
BasE inh: -6.9

Results for CCOc1ccc(N2C(=O)CN(CC(=O)OC)C2=S)cc1 ?
BasE inh: 2.0; LANA-nucl inh: 0.085

What do the screens show for `c1cncc(-c2noc(-c3cccs3)n2)c1`?
BasE inh: 1.9

What do the screens show for `COc1cc(NC(=O)C(C)OC(=O)C23CC4CC(CC(NC(C)=O)(C4)C2)C3)cc(OC)c1` (stereo not given)?
BasE inh: 1.5

What do the screens show for `Nc1ccc2c(c1)OC1(CCCCC1)O2`?
BasE inh: 1.6; LANA-nucl inh: 0.269

What do the screens show for `CN1C(=S)N(c2ccc(Cl)cc2)C(=O)/C1=C/c1ccccc1O`?
BasE inh: 2.8

What do the screens show for `O=C(CN1CCOCC1)NNc1nc(-c2ccccc2)c2cc(Cl)ccc2n1`?
BasE inh: -0.5; LANA-nucl inh: -0.0635

What do the screens show for `O=C(Nc1ccccc1C(F)(F)F)N1CCCC1c1cccnc1` (stereo not given)?
LANA-nucl inh: -1.78
